KCNQ2 enhance – enhances the rat KCNQ2 potassium channel. O88943. CHO-K1 KCNQ2, FluxOR thallium flux fluorescence; active compounds read high. B-score at 10 µM. 310,000 compounds, 0.54% hits. AID 2239;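 active = fluorescence ratio B-score at least 3 SD of library B-scores, with initial fluorescence B-score within 3 SD, cut at about 5.3 in these data; same plate scores as AID 2156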;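 note: B-score of peak minus minimum over baseline fluorescence ratio after K+ and Tl+ stimulus; positive B-score means potentiation of KCNQ2 with more thallium influx and brighter signal; only the inactives scoring about 0 or higher are listed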
Target sequence (O88943 whole entry, looked up): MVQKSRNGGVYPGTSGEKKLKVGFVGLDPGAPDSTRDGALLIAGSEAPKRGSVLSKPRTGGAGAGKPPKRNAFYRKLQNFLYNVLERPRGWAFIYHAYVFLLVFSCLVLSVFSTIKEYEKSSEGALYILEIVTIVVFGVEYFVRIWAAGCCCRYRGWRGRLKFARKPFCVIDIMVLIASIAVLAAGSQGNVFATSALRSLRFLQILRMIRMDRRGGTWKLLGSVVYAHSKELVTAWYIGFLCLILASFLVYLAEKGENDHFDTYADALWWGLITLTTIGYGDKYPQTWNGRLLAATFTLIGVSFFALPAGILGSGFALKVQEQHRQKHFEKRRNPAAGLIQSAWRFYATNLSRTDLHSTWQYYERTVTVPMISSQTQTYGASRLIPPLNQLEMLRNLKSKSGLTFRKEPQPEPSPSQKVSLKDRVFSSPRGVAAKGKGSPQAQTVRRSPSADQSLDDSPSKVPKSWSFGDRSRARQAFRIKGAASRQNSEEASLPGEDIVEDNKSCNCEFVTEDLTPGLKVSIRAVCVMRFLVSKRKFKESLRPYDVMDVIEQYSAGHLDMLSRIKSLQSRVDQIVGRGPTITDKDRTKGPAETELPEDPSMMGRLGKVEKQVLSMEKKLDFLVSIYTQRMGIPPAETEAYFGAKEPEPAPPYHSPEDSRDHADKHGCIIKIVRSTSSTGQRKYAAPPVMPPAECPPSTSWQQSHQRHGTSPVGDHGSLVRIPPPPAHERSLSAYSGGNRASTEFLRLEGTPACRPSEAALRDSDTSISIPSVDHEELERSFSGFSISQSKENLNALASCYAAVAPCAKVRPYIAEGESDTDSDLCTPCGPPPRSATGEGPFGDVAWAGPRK
KCNQ2 enhance baseline – further read-out of KCNQ2 enhance, marked with its call; B-score; compound at 10 µM; measured here: initial fluorescence intensity artifact check;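 brightness before thallium and not channel activity; 0 = typical well and far values either way flag optical interference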
Active calls of the source: *. This is a subset (hit frequency here may not be typical).

SMILES	KCNQ2 enhance	KCNQ2 enhance baseline
Fc1ccccc1Sc1ccccc1CNC1=NCCN1	2.6	-2.1
CS(=O)(=O)N(Cc1ccccc1)c1ccc(C(=O)NCc2ccccc2)cc1	0.28	-0.26
CCOC(=O)CSc1ncc(OC)c(=O)[nH]1	0.73	0.81
Cc1ccc(S(=O)(=O)Nc2ccc(S(=O)(=O)NC(C)(C)C)cc2)cc1	0.43	-2.6
CC(C(=O)Nc1cc([N+](=O)[O-])ccc1Cl)N1CCN(c2ccccc2)CC1 (stereo not given)	0.24	-0.23
Cc1ncc([N+](=O)[O-])n1CC(=O)NCCc1ccccc1	0.39	0.27
CCOc1ccc(NC(=O)Cn2sc3nc(C)cc(C)c3c2=O)cc1	1.4	0.02
COc1cccc(OC)c1C(=O)Nc1ccnn1C	0.61	2.2
N#CCCn1cc(C(CC(=O)c2ccccc2)C(=O)O)c2ccccc21 (stereo not given)	0.02	0.47
Nc1nc2c(ccc3ccccc32)s1	2.8	1.7
C=CCC1(C#N)C(=S)NC2=C(C(=O)CC(C)(C)C2)C1c1ccc(Br)cc1 (stereo not given)	1.9	-2.5
O=C1NC2c3ccccc3CC2O1 (stereo not given)	2.4	-0.29
COc1ccc(NC(=O)CN(C)S(=O)(=O)c2ccc(Br)s2)cc1	0.22	-3
COc1ccc(OC)c(NC(=O)c2cnc(Nc3ccccc3OC)c3ccccc23)c1	0.26	-1
CCC(=O)Nc1c2c(nn1-c1ccccc1)CSC2	1	3.4
Cc1csc(NC(=O)c2ccco2)n1	1.4	3.4
Cc1nn(C)c(C)c1CNC(=O)/C=C/c1ccccc1F	0.47	-0.13
CSc1cccc(NC(C)=O)c1	1.9	-0.63
COc1ccc2cc(C(=O)NCc3ccco3)c(=O)oc2c1	1.5	-1.6
O=C(COC(=O)c1ccc2ncsc2c1)NC(=O)NCc1ccccc1	0.02	-0.03
CC(=Nc1ccc(C)c(C)c1)C1=C(O)CCC1=O	0.05	1
COc1cccc(-c2noc(CCC(=O)NCCc3ccccc3)n2)c1	0.1	0.16
CCOc1cc(C2NC(=O)NC(O)(C(F)(F)F)C2C(=O)c2ccc(Cl)cc2)ccc1O (stereo not given)	1.3	0.96
O=[N+]([O-])c1cc(/C=N\Nc2nccs2)ccc1O	0.51	-0.63
COc1cccc(Cn2nnc(C(=O)NCCc3ccc(Cl)cc3)c2N)c1	1.8	-0.2
COc1ccc(CC(=O)NCc2nnc(SCC(=O)Nc3ncc(C)s3)n2C)cc1	1.4	-0.73
NC(=S)N/N=C/c1coc2cc(Cl)ccc2c1=O	0.18	0.37
O=C(Nc1nnc(SCc2c(Cl)cccc2Cl)s1)c1ccc2ncsc2c1	2.3	-1.1
CO/N=C\c1cc(C(=O)c2ccc(Cl)cc2Cl)cn1C	0.22	-1.4
O=C(CCN1CCCCO1)N1CCCC(Nc2ccc(F)cc2)C1 (stereo not given)	0.5	-0.45
COC(=O)CC1NCCc2cc(OC)c(OC)cc21 (stereo not given)	0.85	-0.13
Cc1nc(SCC(=O)NC(=O)NC(C)C)nc(C)c1C	0.01	-0.8
CC(=O)Nc1ccc(NC(=O)COC(=O)C2(c3ccc(Cl)cc3)CCCC2)cc1	0.66	-0.04
Cn1cnnc1SC(C(=O)Nc1cccc(C(F)(F)F)c1)c1ccccc1 (stereo not given)	0.38	-0.56
Cc1ccc(S(=O)(=O)N2CCCN(C(=O)OC(C)(C)C)CC2)cc1	0.06	-0.66
COC(=O)c1cc(-c2ccc(OC)c(OC)c2)n[nH]1	1.6	0.45

27 successive records out of the list so far:
SMILES	KCNQ2 enhance	KCNQ2 enhance baseline
N#CCCn1cc(C(CC(=O)c2ccccc2)C(=O)O)c2ccccc21 (stereo not given)	0.02	0.47
Nc1nc2c(ccc3ccccc32)s1	2.8	1.7
C=CCC1(C#N)C(=S)NC2=C(C(=O)CC(C)(C)C2)C1c1ccc(Br)cc1 (stereo not given)	1.9	-2.5
O=C1NC2c3ccccc3CC2O1 (stereo not given)	2.4	-0.29
COc1ccc(NC(=O)CN(C)S(=O)(=O)c2ccc(Br)s2)cc1	0.22	-3
COc1ccc(OC)c(NC(=O)c2cnc(Nc3ccccc3OC)c3ccccc23)c1	0.26	-1
CCC(=O)Nc1c2c(nn1-c1ccccc1)CSC2	1	3.4
Cc1csc(NC(=O)c2ccco2)n1	1.4	3.4
Cc1nn(C)c(C)c1CNC(=O)/C=C/c1ccccc1F	0.47	-0.13
CSc1cccc(NC(C)=O)c1	1.9	-0.63
COc1ccc2cc(C(=O)NCc3ccco3)c(=O)oc2c1	1.5	-1.6
O=C(COC(=O)c1ccc2ncsc2c1)NC(=O)NCc1ccccc1	0.02	-0.03
CC(=Nc1ccc(C)c(C)c1)C1=C(O)CCC1=O	0.05	1
COc1cccc(-c2noc(CCC(=O)NCCc3ccccc3)n2)c1	0.1	0.16
CCOc1cc(C2NC(=O)NC(O)(C(F)(F)F)C2C(=O)c2ccc(Cl)cc2)ccc1O (stereo not given)	1.3	0.96
O=[N+]([O-])c1cc(/C=N\Nc2nccs2)ccc1O	0.51	-0.63
COc1cccc(Cn2nnc(C(=O)NCCc3ccc(Cl)cc3)c2N)c1	1.8	-0.2
COc1ccc(CC(=O)NCc2nnc(SCC(=O)Nc3ncc(C)s3)n2C)cc1	1.4	-0.73
NC(=S)N/N=C/c1coc2cc(Cl)ccc2c1=O	0.18	0.37
O=C(Nc1nnc(SCc2c(Cl)cccc2Cl)s1)c1ccc2ncsc2c1	2.3	-1.1
CO/N=C\c1cc(C(=O)c2ccc(Cl)cc2Cl)cn1C	0.22	-1.4
O=C(CCN1CCCCO1)N1CCCC(Nc2ccc(F)cc2)C1 (stereo not given)	0.5	-0.45
COC(=O)CC1NCCc2cc(OC)c(OC)cc21 (stereo not given)	0.85	-0.13
Cc1nc(SCC(=O)NC(=O)NC(C)C)nc(C)c1C	0.01	-0.8
CC(=O)Nc1ccc(NC(=O)COC(=O)C2(c3ccc(Cl)cc3)CCCC2)cc1	0.66	-0.04
Cn1cnnc1SC(C(=O)Nc1cccc(C(F)(F)F)c1)c1ccccc1 (stereo not given)	0.38	-0.56
Cc1ccc(S(=O)(=O)N2CCCN(C(=O)OC(C)(C)C)CC2)cc1	0.06	-0.66

(further entries)
SMILES	KCNQ2 enhance	KCNQ2 enhance baseline
CCS(=O)(=O)c1ccc(C(=O)NC)c(Cl)c1Cl	1.2	-0.49
CCO/C(C)=C1\C(=O)Nc2ccccc21	0.03	-0.05
Cc1ccc(NC(=O)c2cc3ccccc3oc2=O)cc1S(=O)(=O)N(C)C	0.08	2.5
O=C(Nc1ccc(F)cc1)c1cc2c(s1)CCCC2	1.4	0.74
CCOC(=O)C1CCN(S(=O)(=O)Cc2ccccc2)C1=O (stereo not given)	0.35	0.57
Cc1ccc2[nH]c(CSc3ccccc3)cc(=O)c2c1	2.7	0.64
CCC(=O)c1cccc2c1N=CC1=C(CC(C)(C)CC1=O)N2	0.69	-2
NC(=O)c1ccc(NC(=O)C#Cc2ccccc2)cc1	0.81	-0.06
COc1ccc2c(c1)CC/C(=C\c1ccc(OC)c(Cn3cccn3)c1)C2=O	1.4	-0.24
FC(F)(F)c1ccnc(NCc2ccco2)n1	0.97	-1.2
CCOC(=O)C1CCCN(C(=O)COc2ccccc2F)C1 (stereo not given)	0.02	-1.1
O=C(CCNC(=O)c1ccc(Br)cc1)Nc1nccs1	0.04	-1.8
COc1cc(C(=O)NC2=C(C#N)CCC2)cc(OC)c1OC	0.62	0.04
Cc1ccc(/C=N/NC(=O)c2ccc(OC3CCCC3)cc2)o1	2.3	-1.1
Cc1ccccc1OCC(=O)OCC(=O)NCCNC(=O)COC(=O)COc1ccccc1C	0.43	-1.8
NC(=O)C1C(c2ccccc2)=C1c1ccccc1	0.15	-0.02
CCn1nc(NC(C)=O)c2cc3ccc(C)cc3nc21	1.8	-0.29
CC1CN(CC(O)COc2ccc(C(=O)c3ccccc3)cc2)CC(C)O1 (stereo not given)	0.7	-0.87
Clc1ccc2c(c1)-c1nnc(Br)n1-c1ccccc1S2	1	-0.29
COc1ccccc1CC(=O)NCCCc1ccccc1	0.1	0.42
CC(=O)Nc1ccc(NC(=O)C2CCCN2/C=C/C(=O)C(F)(F)F)cc1 (stereo not given)	0.86	0.22
CCCC[C@H]1COCCS(=O)(=O)N1Cc1cccc([N+](=O)[O-])c1	0.4	-0.47
CCCn1c(C(O)c2ccc(OCC)cc2)nc2ccccc21 (stereo not given)	0.01	-0.68
O=C(N/N=C/c1ccccn1)c1cccc(NC(=O)c2ccccc2Cl)c1	3.1	-0.87
CC1=CC(=O)C=C(C)C1=NOS(=O)(=O)c1ccccc1	2.2	-0.82
CC(C)(C)OC(=O)N1CCC(c2c(C(=O)NC3CC3)cnn2-c2ccccc2)CC1	0.22	-0.08
O=C(CSc1nnc2ccccn12)NCc1ccco1	0.12	-1.1
COc1ccc(NC(=O)C2CCCN2C(=O)NC2CCCCC2)cc1 (stereo not given)	0.42	1.3
O=c1[nH]cnc2nn(-c3ccccc3)nc12	0.83	1.7
O=C(Cn1ccc2ccccc2c1=O)NCCC(=O)N1CCN(c2cccc(Cl)c2)CC1	0.37	0.57
Cc1cc(C)c2nc(NCc3ccccc3O)sc2c1	0.1	-0.16
Cc1nc2nc(SCC(=O)c3ccc([N+](=O)[O-])cc3)[nH]c2cc1Br	0.29	0.23
CC(=O)c1cccc(NC(=O)CCS(=O)(=O)c2cc3c(cc2C)NC(=O)CO3)c1	0.61	-0.08
CCc1ccc(CNC(=O)CCc2nc(-c3cccs3)no2)cc1	0.45	0.15
CCCC[n+]1c(C)sc2cc(OC)ccc21	0.5	-0.41
COc1cc(/C=C2\C(=N)N3N=C(C)SC3=NC2=O)cc(Cl)c1OCCOc1ccc(NC(C)=O)cc1	0.96	-0.43
COCCN(C(=S)Nc1ccc(C)cc1C)C(C)c1ccco1 (stereo not given)	0.74	-1.9
Cn1c(CSCc2ccc(Cl)cc2)nnc1SCC(=O)Nc1nccs1	1.8	-0.83
Cc1nc2c(cc1NC(=O)C(C)(C)C)nc(C)n2Cc1ccccc1	7.3*	0*
CCCCN(C(=O)c1cccc(S(=O)(=O)N2CCCCC2)c1)C1CCS(=O)(=O)C1 (stereo not given)	0.8	0.23
CCN(CC(=O)Nc1c(F)cccc1F)C(=O)CNC(=O)COc1ccccc1	0.5	-1.4
COc1ccc2cc(CCNC(=O)CCc3ccccc3)c(=O)[nH]c2c1	0.48	-0.47
COc1ccc(/C=C(\NC(=O)c2ccccc2)C(=O)N2CCN(C)CC2)cc1	0.26	-1
Cc1c(NC(=O)CCCCCN2C(=O)C3C4C=CC(C4)C3C2=O)c(=O)n(-c2ccccc2)n1C (stereo not given)	0.08	-0.1
COc1ccc(C)cc1S(=O)(=O)Nc1cc2c3c(c1)C(C)C(=O)N3CCC2 (stereo not given)	0.03	0.85
Cc1nc2ccccn2c(=O)c1NC(=O)c1cccc2ccccc12	0.98	0.01
Cc1cc(C)c2nc(SC(C)C(=O)NCC(=O)Nc3ccc(F)c(F)c3F)cc(C)c2c1 (stereo not given)	0.15	1.1

Source: PubChem (Johns Hopkins Ion Channel Center)
